D2 agonist = human D2 receptor agonism in beta-arrestin assay; P14416; DiscoveRx PathHunter D2 beta-arrestin, luminescence, 90 min; 100% = 57 uM dopamine signal; activation, % (no concentration beside the values); 360,000 compounds, 0.084% hits; in the data active = activation above about 40%; inconclusive = about 15% to 40%; inactive = below about 15%; note: compound concentration not given in the record; the text of the record calls up to 30% inactive
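Agonist mode: compounds alone added to overnight-plated D2 PathHunter cells for 90 min at 37 C, with 57 uM final dopamine (EC100) defining full response. Beta-arrestin recruitment detected by chemiluminescent reagent, read after 1 h at ambient temperature.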
gsp antagonist = antagonists of gsp mutant (McCune-Albright syndrome); gsp-mutant cells, cAMP HTRF, 30 min; control for the full effect not named in the record; Potency, µM (titrated, usually from 76.9 µM), for the others: top-dose activity change, negative = inhibition, most hits filed as inhibitors; 340,000 compounds, 0.4% hits; AID 624288; active = falling curve of any shape with a large fitted effect; inconclusive = falling curve, mostly with a smaller effect; inactive = flat or rising curve; cell line not stated here;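 note: intracellular cAMP measured with PDE inhibitor Ro 20-1724 present during compound exposure; potency is the fitted concentration of half-maximal effect; % is set by controls: 0 for no effect and ±100 for the full control effect; nearly all actives have a fitted effect of over 65% in size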
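Cells, 2000/well, grown 16–24 h in DMEM 10% FBS with 0.5 mg/ml G418, then compounds plus […] (300 uM addition stock), 30 min at 37C. cAMP read by HTRF (cAMP-d2 and anti-cAMP antibody-K in lysis buffer) after 30 min RT.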
Six1-Eya2 inh = Six1/Eya2 interaction inhibition; Q15475+O00167; AlphaScreen GST-Six1/His-Eya2 binding, biochemical; stronger effect = lower value; control for the full effect not named in the record; activity change, % (no concentration beside the values); 360,000 compounds, 0.56% hits; in the data active = activity change below about -65%; inconclusive = about -30% to -65%; inactive = above about -30%; note: % is set by controls: 0 for no effect and ±100 for the full control effect
Target sequence (O00167 whole entry, looked up): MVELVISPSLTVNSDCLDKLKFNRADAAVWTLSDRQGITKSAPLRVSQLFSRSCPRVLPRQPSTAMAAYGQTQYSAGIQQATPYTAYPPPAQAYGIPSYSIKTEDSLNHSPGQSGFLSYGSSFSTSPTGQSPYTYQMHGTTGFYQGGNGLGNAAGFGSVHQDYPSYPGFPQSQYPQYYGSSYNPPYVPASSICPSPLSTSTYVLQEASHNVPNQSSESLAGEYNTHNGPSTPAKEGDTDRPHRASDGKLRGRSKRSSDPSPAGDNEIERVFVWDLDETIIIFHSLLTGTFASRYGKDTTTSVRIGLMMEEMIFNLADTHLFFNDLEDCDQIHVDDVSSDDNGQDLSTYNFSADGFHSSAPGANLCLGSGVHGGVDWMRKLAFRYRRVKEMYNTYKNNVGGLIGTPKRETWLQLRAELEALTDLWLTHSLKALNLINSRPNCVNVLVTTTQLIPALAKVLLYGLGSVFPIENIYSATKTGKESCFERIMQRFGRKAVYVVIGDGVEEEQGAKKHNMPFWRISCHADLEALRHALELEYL
Target sequence (Q15475 whole entry, looked up): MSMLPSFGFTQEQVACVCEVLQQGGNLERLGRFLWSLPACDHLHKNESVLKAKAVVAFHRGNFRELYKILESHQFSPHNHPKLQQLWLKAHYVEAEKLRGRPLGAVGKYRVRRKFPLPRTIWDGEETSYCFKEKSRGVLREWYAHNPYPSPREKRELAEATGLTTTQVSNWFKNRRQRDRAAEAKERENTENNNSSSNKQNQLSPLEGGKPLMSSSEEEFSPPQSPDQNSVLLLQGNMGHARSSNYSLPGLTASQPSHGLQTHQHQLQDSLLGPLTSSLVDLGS
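AlphaScreen luminescence read after one hour at 37 °C in darkness. Pin-transferred compounds met GST-Six1 and His-Eya2 protein (5X stock 250 nM/500 nM) plus glutathione donor and Ni-chelate acceptor beads (5X, 50 ug/mL).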
CtBP-E1A inh = CtBP/E1A binding inhibition. 340,000 compounds, 0.49% hits. AlphaScreen GST-E1A/His-CtBP binding, 1536-well; stronger effect = lower value; control for the full effect not named in the record. activity change, % (concentration not given with the values); in the data active means activity change below about -65%; inconclusive means about -30% to -65%; inactive means above about -30%; note: % is set by controls: 0 for no effect and ±100 for the full control effect
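GST-E1A and His-tagged CtBP (125 nM each as 5X stock) were preincubated with pin-transferred compound for 2 h at 37 °C in the dark, then glutathione donor and nickel acceptor beads were added for 1 h before AlphaScreen reading.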
D2 PAM = positive allosteric modulators of human D2 dopamine receptor | P14416 | DiscoveRx D2 beta-arrestin cells, luminescence, 90 min; 100% = 57 uM dopamine signal | potentiation, % (no concentration beside the values) | 360,000 compounds, 0.23% hits; active = potentiation of 50% or more; inconclusive = 30% to 50%; inactive = 30% or less;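 note: compound concentration not given in the record; tested on top of an EC20 dose of dopamine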
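PathHunter beta-arrestin assay in DiscoveRx D2 cells. Compounds were added with an EC20 of dopamine (50 nM final) for 90 min at 37 deg C. Luminescence was read 1 h after detection reagent, with 57 uM dopamine as the EC100 control.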
gsp ag = gsp mutant agonism; 340,000 compounds, 0.13% hits; Potency, µM (series often up to 76.9 µM), for the others: at the highest dose activation (cAMP increase), usual class: activators; gsp mutant cells, cAMP HTRF, 30 min; control for the full effect not named in the record; AID 624287; active = well fitted activation curve with a large enough effect; inconclusive = small, poorly fitted or top-dose-only effect, or another doubt; inactive = no such curve, though single readings can be large or run the other way; cell line not stated here;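 note: phosphodiesterase inhibitor Ro 20-1724 added with compounds to block cAMP breakdown; potency is the fitted concentration of half-maximal effect; nearly all actives have a fitted effect of over 60% in size; about a fifth of the inactives were tested at one dose only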
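Cells stably selected in G418 were plated at 2000/well, grown 16-24 hr, then given compounds in DMSO with the PDE inhibitor […] (300 uM solution added) for 30 min at 37C; cAMP was read by HTRF.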
An asterisk follows results filed as active; ? = inconclusive; nt = not tested or not shown; & = joins results of further samples; [ ] = remark or other dose.

1	COc1cccc(C(O)c2nc(-c3cccc(C(F)(F)F)c3)cs2)c1 (stereo not drawn)
2	Cc1ccc(S(=O)(=O)N(C)c2ccc(C(=O)N3CCCCC3)cc2)cc1
3	COc1ccccc1NC(=O)CS(=O)(=O)c1cccc2nsnc12
4	O=c1cc(CN2CCN(c3cccc(Cl)c3)CC2)c2cc3c(cc2o1)CCCC3
5	Cc1cccc(/N=C/c2c(C)[nH]n(-c3ccccc3)c2=O)n1
6	Cc1cccc(NC(=S)NC(=O)c2cccs2)n1
compound no. | 1 | 2 | 3 | 4 | 5 | 6
D2 agonist | 1.6 | 7.8 | -1.2 | -3.8 | -6.7 | -5.0
gsp antagonist | nt | ? | -2%[15.4 µM] | 10% | -6% | -8%
Six1-Eya2 inh | 3 | 1 | -4 | -1 | -3 | ?
CtBP-E1A inh | 13 | -8 | -5 | -4 | 1 | ?
D2 PAM | -6 | -13 | 9 | -19 | -6 | -13
gsp ag | nt | 8% | ? | ? | ? | -27%

7	Cc1cccnc1NC(=O)c1ccc2c(c1)OCO2
8	CN(Cc1cnc2nc(N)nc(N)c2n1)c1ccc(C(=O)N[C@@H](CCC(=O)O)C(=O)O)cc1
9	CC(C)(C)C(=O)Nc1ccc(S(=O)(=O)Nc2ccccn2)cc1
10	NC(=O)Cc1ncc(C(F)(F)F)cc1Cl
11	COc1ccc(/C=N\NC(=O)c2ccccc2)cc1COc1ccc(F)cc1
12	Cc1ccc(CNC(=O)CCS(=O)(=O)c2cccc3nonc23)cc1
compound no. | 7 | 8 | 9 | 10 | 11 | 12
D2 agonist | 5.6 | -2.1&-3.4 | -3.8 | 5.7 | 1.7 | -2.6
gsp antagonist | 1% | 8%&-4% | 4% | 5% | ? | 2%
Six1-Eya2 inh | 5 | ? | 10 | 8 | -1 | 0
CtBP-E1A inh | 5 | -27&-19 | -10 | -10 | -1 | 3
D2 PAM | -8 | -4&-10 | 2 | -11 | -16 | -4
gsp ag | 13% | nt | -11% | -27% | -34%[inhibitor] | -29%

Entries 9 to 10, reprinted for reference:
9	CC(C)(C)C(=O)Nc1ccc(S(=O)(=O)Nc2ccccn2)cc1
10	NC(=O)Cc1ncc(C(F)(F)F)cc1Cl
compound no. | 9 | 10
D2 agonist | -3.8 | 5.7
gsp antagonist | 4% | 5%
Six1-Eya2 inh | 10 | 8
CtBP-E1A inh | -10 | -10
D2 PAM | 2 | -11
gsp ag | -11% | -27%

Quoted at random: six entries already listed.
12	Cc1ccc(CNC(=O)CCS(=O)(=O)c2cccc3nonc23)cc1
7	Cc1cccnc1NC(=O)c1ccc2c(c1)OCO2
10	NC(=O)Cc1ncc(C(F)(F)F)cc1Cl
9	CC(C)(C)C(=O)Nc1ccc(S(=O)(=O)Nc2ccccn2)cc1
11	COc1ccc(/C=N\NC(=O)c2ccccc2)cc1COc1ccc(F)cc1
8	CN(Cc1cnc2nc(N)nc(N)c2n1)c1ccc(C(=O)N[C@@H](CCC(=O)O)C(=O)O)cc1
compound no. | 12 | 7 | 10 | 9 | 11 | 8
D2 agonist | -2.6 | 5.6 | 5.7 | -3.8 | 1.7 | -2.1&-3.4
gsp antagonist | 2% | 1% | 5% | 4% | ? | 8%&-4%
Six1-Eya2 inh | 0 | 5 | 8 | 10 | -1 | ?
CtBP-E1A inh | 3 | 5 | -10 | -10 | -1 | -27&-19
D2 PAM | -4 | -8 | -11 | 2 | -16 | -4&-10
gsp ag | -29% | 13% | -27% | -11% | -34%[inhibitor] | nt

Next structures:
13	CCN(CCCNC(=O)CCNC(=O)Cn1cnc2ccccc2c1=O)c1ccccc1
14	COc1cccc2[nH]c3c(Cl)ncnc3c12
15	Cc1ccc(C2C(C(=O)c3cccs3)=C(O)C(=O)N2c2cccc(C)n2)cc1 (stereo not drawn)
16	CC(C)(C)NC(=O)Cn1nnc(-c2ccc(Cl)cc2)n1
17	CC(=O)c1c(C)[nH]c(C(=O)Nc2nc(-c3ccc(-c4ccccc4)cc3)cs2)c1C
18	O=C(NNC(=O)C1CC=CCC1)c1ccccc1Cl (stereo not drawn)
compound no. | 13 | 14 | 15 | 16 | 17 | 18
D2 agonist | -1.1 | -0.5 | -7.4 | -0.6 | 2.6 | 1.2
gsp antagonist | -10% | 3% | -6% | 10% | -15% | 6%
Six1-Eya2 inh | 0 | -16 | -10 | 6 | -8 | 27
CtBP-E1A inh | 3 | -25 | -2 | 0 | 0 | -14
D2 PAM | -5 | -5 | -25 | -12 | 5 | -17
gsp ag | 8% | 0% | 4%[15.4 µM] | -4% | 3% | 5%[15.4 µM]

19	COc1ccc(-c2cc(C(=O)OCC(=O)Nc3cc(C)on3)c3ccccc3n2)cc1OC
20	CCCc1nnc(NC(=O)c2nc(S(=O)(=O)Cc3cccc(C)c3)ncc2Cl)s1
21	Cc1ccc(N(CC(=O)NCc2ccccc2)C(=O)CCC(=O)Nc2ccccn2)cc1C
22	CCc1cccc(NS(=O)(=O)c2c(C)nc3scc(C)n3c2=O)c1
23	O=C(NCc1ccco1)c1cc2n(n1)C(C(F)(F)F)CC(c1ccc(Br)cc1)N2 (stereo not drawn)
24	Cc1cccc(-n2cnc3cc(C(=O)N4CCc5ccccc54)ccc32)c1
compound no. | 19 | 20 | 21 | 22 | 23 | 24
D2 agonist | -0.3 | -7.6 | 1.6 | 5.0 | 4.7 | 1.7
gsp antagonist | 2% | 28µM* | -1% | -5% | -6% | -19%
Six1-Eya2 inh | 3 | ? | 4 | 2 | -2 | -12
CtBP-E1A inh | 9 | 0 | -3 | -5 | 7 | -3
D2 PAM | -6 | -26 | -10 | 5 | 8 | 7
gsp ag | -21% | 9% | -9%[15.4 µM] | -7% | 44% | ?

25	CCC(=O)N1CCC2(CC1)Oc1ccc(F)cc1C(=O)C21CC(c2ccc(Cl)cc2)=NO1 (stereo not drawn)
26	O=C(Cn1cc(C(=O)c2ccco2)c2ccccc21)Nc1ccccc1F
27	CN(C)S(=O)(=O)c1ccc(C(=O)Nc2cccc(S(=O)(=O)NC3=NCCC3)c2)cc1
28	CCc1cc(-c2n[nH]c(CCC(=O)O)c2-c2nc3ccccc3n2C)c(O)cc1O
29	COc1cccc(CNS(=O)(=O)c2cccc(S(=O)(=O)N3CCOCC3)c2)c1
30	O=C(NNC(=O)c1cc(-c2ccccc2)nc2ccccc12)c1csc(N2CCOCC2)n1
compound no. | 25 | 26 | 27 | 28 | 29 | 30
D2 agonist | 1.4 | -2.8 | -1.7 | 3.4 | -1.7 | -4.6
gsp antagonist | -17% | -73% | 0% | 1% | 1% | -6%
Six1-Eya2 inh | -11 | -2 | 2 | -15 | 1 | -24
CtBP-E1A inh | -5 | 0 | 3 | 1 | -4 | -11
D2 PAM | 7 | -4 | 0 | 7 | -15 | -38
gsp ag | 3% | 9%[15.4 µM] | -3% | ? | 0% | -25%

31	CC(C)c1ccc(NC2CCCN(C(=O)c3cnc4ccccn4c3=O)C2)cc1 (stereo not drawn)
32	CCOC(=O)C1CCC(CN(Cc2ccccc2C)S(=O)(=O)c2ccc([N+](=O)[O-])cc2)CC1 (stereo not drawn)
33	CC(=O)c1ccc(NC(=O)CN2C(=O)NC(C)(c3ccc4c(c3)OCCO4)C2=O)cc1 (stereo not drawn)
34	C=C(C)C(=O)Nc1cccc(C2=NOC3(C2)C[C@@H](C(N)=O)N(C(=O)c2ccc(Cl)cc2)C3)c1 (stereo partly drawn)
compound no. | 31 | 32 | 33 | 34
D2 agonist | -4.0 | 4.3 | -0.3 | 3.3
gsp antagonist | 3% | -1% | -2% | -3%
Six1-Eya2 inh | -8 | -23 | 1 | -30
CtBP-E1A inh | 2 | -19 | nt | 4
D2 PAM | -6 | 18 | 14 | 2
gsp ag | 5%[15.4 µM] | 0% | -2% | 1%
